BJeLR lethal – BJeLR cell viability loss; BJeLR (HRASV12) viability, CellTiter-Glo ATP luminescence, 48 h; reference of the scale not given here; inhibition, % (concentration not given with the values); hit rate 0.17% among 300,000; AID 1554;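 active = replicate mean above 50%; inconclusive = above 50% but judged a plate artefact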;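 note: 50 nL library stock added to about 25 µL; numbers are from one replicate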
ugtP null kill – growth inhibition of S. aureus ugtP deletion strain | S. aureus RN4220 ugtP deletion, OD600 growth, 16 h; some inactives read as strong as hits | growth inhibition, % (test concentration not listed) | hit rate 0.54% among 330,000 | AID 1259309;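 active = z-score under -3 and OD600 up to 0.15 on both plates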;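 note: plate controls were untreated wells for no effect and antibiotic for full effect; wells of about 80 µL received 100 nL stock; the first replicate is given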
PrP 5UTR inh – suppresses PrP 5' UTR mRNA reporter expression; cell-based PrP 5' UTR mRNA reporter, plate reader; inhibition, % (test concentration not listed); hit rate 0.35% among 340,000;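 active = every replicate at 50% or more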;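 note: 0 = median of the neutral control wells; tested in H4 reporter cells; numbers are from one replicate; inactives centre near -14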
Bead autofluor – compound fluorescence in toxin protease inhibitor counterscreen; AID 624483; fluorescence intensity (no concentration beside the values); compound autofluorescence counterscreen, microsphere flow cytometry; active compounds read high; hit rate 3.1% among 360,000;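 active = at least 3 SD above the mean of all compounds, about 16000 in these data; inconclusive = too few beads counted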;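 note: 100 nL of 1 mM stock went into each well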
Mtb hypoxia inh – reduces hypoxia-regulated biosensor signal in M. tuberculosis. AID 1159583. hit rate 0.1% among 300,000. fluorescence inhibition, % (no concentration beside the values). M. tuberculosis hypoxia-regulated fluorescent reporter, fluorescence;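 active = 35 to 45% if threefold the growth effect, above 45% if 1.5-fold the growth effect; inactive = the rest, general growth blockers included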;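 note: wells of about 50 µL received 100 nL stock; 0% = vehicle wells and 100% = reference inhibitor wells; whole bacteria with a GFP reporter of the hypoxia response; strong numbers were not always called active; many hits fall short of the cut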
RN4220 kill – S. aureus RN4220 growth inhibition; OD600, 16 h; inhibition, % (concentration not given with the values); hit rate 0.33% among 330,000; AID 1259311;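 active = z-score of -3 or lower and OD600 up to 0.18 on both plates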;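 note: plate controls were untreated cells for no effect and reference antibiotic for full effect; stock transfer was 100 nL into about 80 µL; one replicate is shown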
Mtb hypoxia inh growth – also measured in Mtb hypoxia inh; calls as there; growth inhibition, %; measured here: M. tuberculosis growth (absorbance);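 0% = vehicle and 100% = reference antibiotic; read after six days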
* hit, by the source's call.

`Cc1occc1C(=O)N1CCCC(N2CCN(c3cccc(C(F)(F)F)c3)CC2)C1` (stereo not given) gave BJeLR lethal -3.1, ugtP null kill 1.9, PrP 5UTR inh -13.5, Bead autofluor 5452, Mtb hypoxia inh 8.9, RN4220 kill 2.4 and Mtb hypoxia inh growth 9.2.
For Cc1occc1C(=O)N/N=C/C=C\c1ccccc1[N+](=O)[O-] the results were BJeLR lethal 5.0, PrP 5UTR inh -26.7 and Bead autofluor 4594.
For CCOC(=O)CN1C=C(c2ccc3ccccc3n2)C(C[N+](=O)[O-])c2ccccc21 (stereo not given) the results were BJeLR lethal 2.3, ugtP null kill -12.8, PrP 5UTR inh -25.2, Bead autofluor 7947, Mtb hypoxia inh 9.2, RN4220 kill -13.4 and Mtb hypoxia inh growth 7.5.
`Cc1cccc(NC(=O)C2CCN(S(C)(=O)=O)CC2)c1C` gave BJeLR lethal -2.6, PrP 5UTR inh -16.5 and Bead autofluor 4124.
O=C(NCCC1=CCCCC1)C1CCN(c2nc3ccccc3o2)CC1 was read as BJeLR lethal -7.6, ugtP null kill -2.3, Bead autofluor 9700, Mtb hypoxia inh 4.3, RN4220 kill 4.4 and Mtb hypoxia inh growth 7.7.
Screening O=C(COC(=O)c1cc(S(=O)(=O)N2CCOCC2)ccc1F)NC1CCCCC1 returned ugtP null kill 2.5, PrP 5UTR inh -19.5, Bead autofluor 6420, Mtb hypoxia inh 6.2, RN4220 kill 2.3 and Mtb hypoxia inh growth -13.8.
O=C(NC(=Cc1ccc([N+](=O)[O-])cc1)C(=O)N1CCCCC1)c1ccccc1 was read as ugtP null kill -3.3, Mtb hypoxia inh 3.5, RN4220 kill 2.8 and Mtb hypoxia inh growth 12.3.
COc1ccc(NC(=O)CSc2nc(N3CCCCC3)nc(N3CCCCC3)n2)cc1 was read as BJeLR lethal 6.6, ugtP null kill -4.3, Bead autofluor 7826, Mtb hypoxia inh 8.9, RN4220 kill 3.0 and Mtb hypoxia inh growth -4.9.
Cc1c(C)c(C)c(C(=O)C2CCN(c3ccc([N+](=O)[O-])cn3)CC2)c(C)c1C was read as BJeLR lethal -4.7, ugtP null kill 8.3, PrP 5UTR inh -11.0, Bead autofluor 5748, Mtb hypoxia inh 4.9, RN4220 kill 8.0 and Mtb hypoxia inh growth 9.2.
Screening O=C(NCCc1ccc(Cl)cc1)c1ccc(=O)[nH]c1 returned BJeLR lethal -11.8, ugtP null kill 5.4, PrP 5UTR inh -1.8, Bead autofluor 3869, Mtb hypoxia inh 11.7, RN4220 kill -3.2 and Mtb hypoxia inh growth 11.6.
For Cn1c(SCCCC(=O)c2ccccc2)nnc1-c1ccncc1 the results were BJeLR lethal -6.4, ugtP null kill -8.0, PrP 5UTR inh -22.3, Bead autofluor 19499*, Mtb hypoxia inh 0.8, RN4220 kill 6.1 and Mtb hypoxia inh growth 14.2.
Screening CCOc1ccc2nc(NC(=O)Cn3c(C)csc3=O)sc2c1 returned ugtP null kill 7.3, PrP 5UTR inh -13.5, Bead autofluor inconclusive, Mtb hypoxia inh -2.2, RN4220 kill 1.1 and Mtb hypoxia inh growth 1.4.
For C=CCn1nnnc1-c1cc(Cl)cc(Cl)c1 the results were BJeLR lethal 1.0, ugtP null kill 4.9, PrP 5UTR inh -15.2, Bead autofluor 4478, Mtb hypoxia inh 14.3, RN4220 kill 7.7 and Mtb hypoxia inh growth 3.0.
CC(=O)N1CCc2c(sc(NC(=O)C3CCN(S(=O)(=O)c4cccs4)CC3)c2C(N)=O)C1 was read as BJeLR lethal -6.7, ugtP null kill 8.3, PrP 5UTR inh -12.0, Mtb hypoxia inh 3.3, RN4220 kill -0.6 and Mtb hypoxia inh growth 1.0.
Screening COc1ccc(P2(=O)Nc3ccccc3N2)cc1 returned BJeLR lethal -6.3, PrP 5UTR inh -6.9 and Bead autofluor 4480.
O=S1c2ccccc2Nc2ccccc21 was read as BJeLR lethal 1.0, ugtP null kill 4.2, PrP 5UTR inh -19.4, Bead autofluor 3519 and RN4220 kill 3.9.
Screening COc1cc(NC(=O)NCCN2CCN(c3ccc(Cl)cc3)CC2)ccc1C returned BJeLR lethal -6.7, ugtP null kill 1.1, PrP 5UTR inh -11.6, Bead autofluor 2856 and RN4220 kill 0.3.
Screening COc1cc(-c2cc(N)n(S(=O)(=O)c3ccc(F)cc3)n2)cc(OC)c1OC returned BJeLR lethal -3.1, ugtP null kill 7.4, PrP 5UTR inh -0.1, Bead autofluor 4426, Mtb hypoxia inh 6.5, RN4220 kill 3.5 and Mtb hypoxia inh growth 0.8.
`CCCCn1c(NCCO)nc2ccccc21` gave BJeLR lethal 4.9, ugtP null kill 6.6, PrP 5UTR inh 1.8, Bead autofluor 4115, Mtb hypoxia inh 12.8, RN4220 kill 5.5 and Mtb hypoxia inh growth 5.7.
COc1cccc(-c2nnc3sc(-c4ccccn4)nn23)c1 was read as BJeLR lethal 0.4, ugtP null kill -10.1, PrP 5UTR inh -25.1, Bead autofluor 2173 and RN4220 kill 2.0.
For CCCc1cc(C(N)=O)c(NC(=O)c2ccoc2C)s1 the results were BJeLR lethal -14.0, ugtP null kill -20.8, PrP 5UTR inh -0.5, Bead autofluor 23003*, Mtb hypoxia inh 3.2, RN4220 kill 2.3 and Mtb hypoxia inh growth -0.4.
O=C(NC(=S)Nc1ccc(S(=O)(=O)Nc2ncccn2)cc1)c1ccc(Br)cc1 was read as BJeLR lethal 1.3, ugtP null kill 63.9, PrP 5UTR inh -22.3, Bead autofluor 4931, Mtb hypoxia inh 15.7, RN4220 kill 9.4 and Mtb hypoxia inh growth -1.0.
`CC1=NN(c2ccccc2)C(=O)/C1=C\c1ccc(Oc2ccc([N+](=O)[O-])cc2[N+](=O)[O-])cc1` gave BJeLR lethal -1.4, PrP 5UTR inh -8.6 and Bead autofluor 2213.
Screening COc1cc(NC(=O)CSc2ncnc3sc4c(c23)CCCC4)c(C(=O)O)cc1OC returned BJeLR lethal -5.9, ugtP null kill 10.9, PrP 5UTR inh -8.9, Bead autofluor 3688, Mtb hypoxia inh 7.9, RN4220 kill 19.0 and Mtb hypoxia inh growth 3.1.
Screening CCc1nnc(NC(=O)CCC(=O)N2CCN(C3CCCCC3)CC2)s1 returned BJeLR lethal -5.1, ugtP null kill -1.0, PrP 5UTR inh -20.3, Bead autofluor 8968, Mtb hypoxia inh 6.7, RN4220 kill 3.6 and Mtb hypoxia inh growth 5.5.
CCN1CCN(C(=O)CCCCCn2c(=O)[nH]c3cc(C(=O)OC)ccc3c2=O)CC1 was read as BJeLR lethal 3.7, ugtP null kill 4.1, PrP 5UTR inh -22.8, Bead autofluor 7131, Mtb hypoxia inh 8.5, RN4220 kill -1.0 and Mtb hypoxia inh growth 0.3.
Screening COc1ccc(S(=O)(=O)N2CCOCC2)cc1Cl returned BJeLR lethal 5.1, ugtP null kill 1.8, PrP 5UTR inh -18.3, Bead autofluor 12383, Mtb hypoxia inh 13.2, RN4220 kill 4.5 and Mtb hypoxia inh growth 12.4.
Screening Cc1ccc(C(=O)NCCN2C3=NCC(Cc4ccc(O)cc4)N3CC2Cc2ccc(O)cc2)cc1Br (stereo not given) returned ugtP null kill -5.8, Mtb hypoxia inh -4.8, RN4220 kill -10.5 and Mtb hypoxia inh growth 11.4.
`CCC(=O)Nc1ccc(C(=O)COC(=O)c2sc(C)nc2C)cc1` gave ugtP null kill 5.9, PrP 5UTR inh -15.0, Bead autofluor 7493, Mtb hypoxia inh 4.0, RN4220 kill -0.5 and Mtb hypoxia inh growth 4.4.
For NC(=O)CC(NC(=O)Cc1ccc(Cl)cc1)c1ccc(NC2CCCC2)c([N+](=O)[O-])c1 (stereo not given) the results were BJeLR lethal 0.2, ugtP null kill -1.6, PrP 5UTR inh -37.9, Bead autofluor 4154, Mtb hypoxia inh 9.3, RN4220 kill 5.2 and Mtb hypoxia inh growth 0.3.
Screening Cc1c(NC(=O)Nc2cccc(Cl)c2)c(=O)n(-c2ccccc2)n1C returned BJeLR lethal 2.5, ugtP null kill -1.1, PrP 5UTR inh -9.9, Bead autofluor 10515, Mtb hypoxia inh 2.1, RN4220 kill 5.1 and Mtb hypoxia inh growth 4.6.
Screening O=C1Oc2ccccc2C(=O)/C1=C/c1ccccc1O returned BJeLR lethal -4.5, PrP 5UTR inh -16.9 and Bead autofluor 2420.
For CC1(C2CC2)NC(=O)N(CC(=O)N2CCN(c3ccccc3)CC2)C1=O (stereo not given) the results were ugtP null kill 12.1, PrP 5UTR inh -16.0, Bead autofluor 3019, Mtb hypoxia inh -3.7, RN4220 kill 6.1 and Mtb hypoxia inh growth -7.4.
Screening COC(=O)CCC(NC(=O)c1cc(C)oc1C)C(=O)OC (stereo not given) returned BJeLR lethal 3.2, ugtP null kill -0.2, PrP 5UTR inh -14.5, Bead autofluor 2940, Mtb hypoxia inh 10.7, RN4220 kill 2.4 and Mtb hypoxia inh growth 8.5.
For COc1ccc(N2CCN(C(=O)c3ccc(COc4ccc([N+](=O)[O-])cc4)o3)CC2)cc1 the results were BJeLR lethal 11.5, ugtP null kill 0.1, PrP 5UTR inh -21.8, Bead autofluor 2869, Mtb hypoxia inh -3.9, RN4220 kill 1.1 and Mtb hypoxia inh growth 13.3.
For COc1cc(/C=C/c2cc[n+](C)cc2)ccc1OCC(=O)Nc1ccccc1 the results were BJeLR lethal -1.0, ugtP null kill 4.6, PrP 5UTR inh -17.0, Bead autofluor 4433, Mtb hypoxia inh 3.2, RN4220 kill -0.4 and Mtb hypoxia inh growth 9.1.
Screening CN(Cc1cnn(C)c1)C(=O)C1CCCCC1C(=O)O (stereo not given) returned ugtP null kill -4.2, PrP 5UTR inh 2.0, Bead autofluor 3374, Mtb hypoxia inh 3.5, RN4220 kill -2.4 and Mtb hypoxia inh growth 1.3.
Screening Cc1ccc(C(=O)c2oc3ccccc3c2N)cc1 returned BJeLR lethal 7.5, ugtP null kill 5.4, PrP 5UTR inh -60.3, Bead autofluor 3064 and RN4220 kill 0.0.
CCN1C(=O)[C@@H]2[C@H](C1=O)[C@@H]1C(=O)Nc3ccccc3C(=O)N1[C@@H]2c1cccc(OC)c1 was read as BJeLR lethal 3.3, PrP 5UTR inh -12.8 and Bead autofluor 3968.
Screening Cc1c(NC(=O)CCSCCc2ccccn2)cccc1[N+](=O)[O-] returned BJeLR lethal 6.0, ugtP null kill 0.8, PrP 5UTR inh -11.9, Bead autofluor 2238, Mtb hypoxia inh -15.9, RN4220 kill -4.7 and Mtb hypoxia inh growth 3.9.
Cc1cc(/C=C2/C(=O)NN(c3ccccc3)C2=O)c(C)n1-c1cccc(O)c1 was read as BJeLR lethal 0.3, ugtP null kill 0.5, PrP 5UTR inh 41.3, Bead autofluor 2090, Mtb hypoxia inh 8.0, RN4220 kill 11.0 and Mtb hypoxia inh growth 2.2.
For N#Cc1ccccc1COC(=O)CCCC1=NS(=O)(=O)c2ccccc2N1 the results were BJeLR lethal -6.4, ugtP null kill 0.7, PrP 5UTR inh -1.1, Bead autofluor 5466, Mtb hypoxia inh -6.8, RN4220 kill 2.1 and Mtb hypoxia inh growth 1.5.
CCNC(=O)CCc1nc(-c2ccc(C(C)(C)C)cc2)no1 was read as BJeLR lethal -0.2, ugtP null kill 1.0, PrP 5UTR inh -3.8, Bead autofluor 2271 and RN4220 kill 4.6.
CCCCCCNC(=O)CSc1nccn1Cc1ccccc1 was read as BJeLR lethal 0.5, ugtP null kill -6.1, PrP 5UTR inh 0.0, Bead autofluor 9261, Mtb hypoxia inh 8.5, RN4220 kill 6.7 and Mtb hypoxia inh growth 11.0.
CCOC(=O)c1sc(NC(=O)c2ccc(C)o2)nc1C was read as BJeLR lethal 0.3, ugtP null kill -15.0, PrP 5UTR inh -94.4, Bead autofluor 12867, Mtb hypoxia inh -0.5, RN4220 kill 8.9 and Mtb hypoxia inh growth 2.7.

By substructure: those above containing bromine (2)
O=C(NC(=S)Nc1ccc(S(=O)(=O)Nc2ncccn2)cc1)c1ccc(Br)cc1 was read as BJeLR lethal 1.3, ugtP null kill 63.9, PrP 5UTR inh -22.3, Bead autofluor 4931, Mtb hypoxia inh 15.7, RN4220 kill 9.4 and Mtb hypoxia inh growth -1.0.
Screening Cc1ccc(C(=O)NCCN2C3=NCC(Cc4ccc(O)cc4)N3CC2Cc2ccc(O)cc2)cc1Br (stereo not given) returned ugtP null kill -5.8, Mtb hypoxia inh -4.8, RN4220 kill -10.5 and Mtb hypoxia inh growth 11.4.
